# Sa growth 42C: S. aureus growth inhibition; relative growth, % (concentration not given with the values); S. aureus RN4220 growth, OD600, 20 h, 42 °C; active compounds read low; 170,000 compounds, 0.53% hits;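 active means growth at 42 °C up to 50% and 20 or more points under that at 30 °C, or under 10% at both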;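 further: 300 nL library stock went into each well; scaled to the means of positive and negative controls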
# HCMV UL50-53 inh: cytomegalovirus nuclear egress complex inhibition; 190,000 compounds, 0.15% hits; inhibition, % (test concentration not listed); HTRF UL50-UL53 interaction, normalized percent inhibition;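 active means both replicates at 50% or more, plus weaker picks with an unusually low signal ratio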;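 further: stock transfer was 100 nL into about 20 µL; 0% = negative control wells and 100% = wells with untagged competitor protein; inactives centre near -12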
# GIV Gai3 FP: inhibitors of GIV GBA-motif binding to rat Galpha-i3; P08753; Galpha-i3/FITC-GIV peptide fluorescence polarization, 90 min; active compounds read low; scaled: aluminum fluoride 0%, vehicle 100%; percent of control (FP), % (concentration not given with the values); 210,000 compounds, 0.42% hits;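 active means replicate mean at 85% of control or lower, very high polarization wells dropped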;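 further: wells of about 15 µL received 100 nL stock; the first replicate is given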
# Target sequence (P08753 whole entry, looked up): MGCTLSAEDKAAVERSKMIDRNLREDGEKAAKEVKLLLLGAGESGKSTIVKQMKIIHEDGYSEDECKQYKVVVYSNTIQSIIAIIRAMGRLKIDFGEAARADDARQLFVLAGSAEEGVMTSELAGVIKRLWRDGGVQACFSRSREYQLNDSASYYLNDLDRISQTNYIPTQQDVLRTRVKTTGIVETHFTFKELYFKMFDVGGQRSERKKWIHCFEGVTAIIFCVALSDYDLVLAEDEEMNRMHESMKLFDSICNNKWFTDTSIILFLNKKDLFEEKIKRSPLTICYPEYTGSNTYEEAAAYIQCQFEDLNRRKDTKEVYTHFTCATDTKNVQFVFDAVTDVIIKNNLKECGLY
# Sa growth 42C second temp: further read-out of Sa growth 42C, marked with its call; relative growth, %; measured here: growth at 30 °C;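 optical density after 20 h as mean of two plates; 100% = untreated growth and lower means inhibition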
# * = called active by the depositor; x = no result given; & = joins results of further samples.
SMILES,Sa growth 42C,Sa growth 42C second temp,HCMV UL50-53 inh,GIV Gai3 FP
COC(=O)c1nnn(-c2nonc2N)c1CN1CCC(Cc2ccccc2)CC1,104,108,5,111
O=C(NC1CCCCC1)N1CCc2cc(S(=O)(=O)Nc3ccc(Br)cc3F)ccc21,x,x,-24,95
Cc1[nH]c2ccccc2c1SCc1nnc(SCc2ccc(Cl)cc2)n1C,106,91,-34,103
CCc1cccc(C)c1Nc1c(-c2ccsc2)nc2cnccn12,100,70,x,102
O=C(O)/C=C/C(=O)Nc1ccc(-c2nc3ccccc3o2)cc1,98,88,-32,92
CCC(C)NC(N)=S (stereo unspecified),69,92,-4,x
COc1ccc(C)cc1NC(=O)c1oc2ccc(S(=O)(=O)N3CCOCC3)cc2c1C,112,94,x,101
Cc1cccc(C(=O)N/C(=C/c2ccc(N(C)C)cc2)C(=O)O)c1,104,94,x,104
COc1cccc(C2C(C(=O)Nc3ccc(Br)cn3)=C(C)NC3=C2C(=O)CCC3)c1OC (stereo unspecified),x,x,-4,102
CCN(CC)S(=O)(=O)c1ccc2c(c1)N(CC(=O)Nc1c(C)cccc1C)C(=O)CO2,118,99,-11,105
CN1C(=O)C2CCCCN2c2ccc(C(=O)NCc3ccccc3Br)cc21 (stereo unspecified),81,80,x,101
Cc1cc(=O)n2nc(N3CCC(C(=O)NCc4ccc(Cl)cc4)CC3)sc2n1,109,91,-12&13,105&103
CC1CCN(C(=O)Cn2cc(SCC(=O)N3CCOCC3)c3ccccc32)CC1,x,x,-10,105
N#Cc1ccc(OCC(=O)N2CCC(C(N)=O)CC2)cc1,112,82,-22,x
CN1C(=O)C2(SCC(=O)N2c2ccc(Cl)cc2)c2ccccc21 (stereo unspecified),101,90,x,104
Cc1ccc(CCNC(=O)C2CCCN(S(=O)(=O)c3ccc4c(c3)oc(=O)n4C)C2)cc1 (stereo unspecified),97,87,-31,103
O=C(CSc1ncccn1)NC(=O)Nc1ccc2c(c1)OCCO2,72,89,-19,x
CC(C)CC1Nc2ccc(C(=O)N3CCCCC3)cc2NC1=O (stereo unspecified),95,100,-8,108
COc1cccc(Oc2ccccc2C(=O)O)c1,104,95,-4,106
CCC(C)N(CC)C(=O)C1C(=O)CC(C)(C)CC1=O (stereo unspecified),85,96,-4,98
NC(=O)c1c(NC(=O)c2cc3cc(Br)ccc3oc2=O)sc2c1CCCC2,x,x,-20,98
O=C1NC(c2ccc(Cl)cc2)Nc2ccccc21 (stereo unspecified),107,43,4,103
CCc1ccc(CNC(=O)c2ccc3c(c2)nc2n3CCC(C)C2)cc1 (stereo unspecified),102,102,x,107
Cc1cc(NC(=O)c2ccc3c(c2)OCCO3)no1,x,x,-12,102
CCc1cccc(CC)c1NC(=O)/C(C#N)=C/c1c(C)nn(-c2ccccc2)c1N1CCCC1,124,106,7,x
COc1ccc(Oc2ncccc2NC(=O)c2ccc(C)cc2)cc1,104,100,8,111
CCOC(=O)Cc1nnc(SCc2ccc(C#N)cc2)n1Cc1ccco1,97,93,-8,x
CCOc1ccccc1NC(=O)N1CCN(C)c2ncccc21,100,76,-29,105
c1ccc(CNCC2COc3ccccc3O2)cc1 (stereo unspecified),75,86,-4,111
COc1ccc(Cl)cc1NC(=O)c1cnc2scc(C)n2c1=O,105,92,2,91
CN(C(=O)c1cc2c(=O)[nH]c3ccccc3c2s1)C1CCCCC1,111,106,1,99
O=C(Cn1nnc2ccccc2c1=O)N1N=C(c2cccs2)CC1c1cccs1 (stereo unspecified),104,96,-23,x
OC(CN1CCN(c2cccnc2)CC1)Cn1nnnc1-c1ccccc1 (stereo unspecified),90,78,x,103
COCC(C)N=C1NN=C(c2ccc(O)cc2O)CS1 (stereo unspecified),106,95,-48,x
O=C(COc1ccc(Cl)cc1Cl)Nc1ccc2c(c1)OCCO2,123,89,0,106
CCc1ccc(NCc2cc(=O)n3[nH]c(NCc4ccc(C(C)C)cc4)nc3n2)cc1,x,x,-17,107
O=C(O)CN1CCN(Cc2ccc(F)cc2Cl)C1=O,99,97,-2,101
O=C(NC(NC(=O)c1ccco1)c1ccc(Br)cc1)c1ccco1,103,89,-36,104
COc1ccc(C(=O)Nc2cc(-c3nc4ccccc4s3)ccc2OC)cc1,98,100,-1,101
CN(C)c1nc(Nc2ccccc2)nc(N(C)C)n1,121,72,-2,103
CNC(=O)c1cc(Br)cc2c1OCC2,98,90,18,108
COc1ccc(Cn2c(O)c(N=O)c3ccccc32)cc1,105,99,-28,106
O=C(c1cc2ccccc2o1)N(Cc1c(F)cccc1Cl)C1CC1,65,38,-9,x
COc1cc(-c2nc3cccc(C)n3c2Nc2ccc3c(c2)OCCO3)ccc1O,109,70,-24,102
Cc1nn(C)c(C)c1NC(=O)CSc1nccc(-c2ccc(Cl)cc2)n1,106,76,-13,102
COc1cc(C(=O)NCCc2csc(-c3ccc(Cl)cc3)n2)cc(OC)c1OC,83,92,x,106
O=C(NC1CCN(Cc2ccccc2)CC1)C1CCCN(S(=O)(=O)c2cccc3nonc23)C1 (stereo unspecified),102,89,-89,108
CCCCn1c(CN2CCC(C)CC2)nc2c1c(=O)n(C)c(=O)n2C,x,x,-32,103
CCOC(=O)c1cccc(NC(=O)CN(c2ccc(C)cc2)S(=O)(=O)c2c(C)n[nH]c2C)c1,112,77,2,94
COc1cc(NC(=O)Cn2nc(-c3ccc(C)c(C)c3)ccc2=O)cc(OC)c1,91,80,-32,99
CCOC(=O)c1oc2ccccc2c1NC(=O)C1c2ccccc2Oc2ccccc21,x,x,-4,104
Cc1cccc(OCCNC(=O)c2cccnc2)c1,107,93,-20,x
COCCCN1CCn2c(nc3cc(NS(C)(=O)=O)ccc32)C1,x,x,-12,100
Cc1c(/C=C/C(=O)Nc2nccs2)sc2ccccc12,87,93,-6,104
N#CC1=C(N)Oc2n[nH]c(-c3ccc4c(c3)OCO4)c2C1c1cccc(OC(=O)N2CCOCC2)c1 (stereo unspecified),x,x,-9,104
CC(=O)Nc1cccc(NC(=O)CSc2cn(CC(=O)N(C(C)C)C(C)C)c3ccccc23)c1,131,80,x,102
CCc1ccc(CNC(=O)c2cc(-c3ccc(Cl)s3)nc3ccccc23)cc1,103,90,-9,105
O=C1NC(Cc2c[nH]c3ccccc23)C(=O)N1Cc1ccc(Cl)cc1 (stereo unspecified),87,94,-16,x
Cc1cc2c(cc1NS(=O)(=O)c1cccc(C#N)c1)n(C)c(=O)c(=O)n2C,91,86,x,105
O=C(CCC(=O)N1CCCCc2ccccc21)Nc1ccc(Cl)cc1,x,x,-13,103

# Another view of part of the listing above.
Compound	Sa growth 42C	Sa growth 42C second temp	HCMV UL50-53 inh	GIV Gai3 FP
CCOC(=O)c1cccc(NC(=O)CN(c2ccc(C)cc2)S(=O)(=O)c2c(C)n[nH]c2C)c1	112	77	2	94
COc1cc(NC(=O)Cn2nc(-c3ccc(C)c(C)c3)ccc2=O)cc(OC)c1	91	80	-32	99
CCOC(=O)c1oc2ccccc2c1NC(=O)C1c2ccccc2Oc2ccccc21	x	x	-4	104

# Other records:
SMILES,Sa growth 42C,Sa growth 42C second temp,HCMV UL50-53 inh,GIV Gai3 FP
Cc1[nH]nc2c1C1C(C2)C1(C)C (stereo unspecified),152,25,2,101
CCC(=O)Nc1nnc(-c2ccc3c(c2)CCCC3)o1,-0.4*,2.2*,-28,103
NC(=O)c1cc(S(=O)(=O)Nc2cccc(F)c2)co1,96,91,4,92
Cc1ccc2oc(N3CCN(C(=O)c4cccc(-c5noc(C)n5)c4)CC3)nc2n1,x,x,-3,107
O=C(Nc1ccccc1)c1ccc2c(O)c(S(=O)(=O)c3ccc(Cl)cc3)c(=O)[nH]c2c1,89,89,x,105
COC(=O)C1Cc2ccccc2CN1C(=O)CSc1nc(C)cs1 (stereo unspecified),103,98,2,x
COc1ccc(CNC(=O)C(C)Sc2nc(N)cc(N)n2)cc1 (stereo unspecified),72,85,-18,x
O=C(O)c1ccccc1SC1CC(=O)N(c2ccc(N3CCCCC3)cc2)C1=O (stereo unspecified),97,78,0,98
CCOc1ccccc1N=Nc1c(C)[nH]n(C(N)=S)c1=O,96,89,-18,107
C=CCNC(=O)COc1ccc(-n2cnnn2)cc1,95,96,-1,x
COCCn1c(=O)[nH]c(=O)c2c3c(cnc21)C(=O)CCC3,x,x,4,106
O=C(Nc1nc2ccc(Cl)cc2s1)c1ccc(Br)s1,80,91,8,x

# 4 of the compounds above, field by field:
Compound: O=C(O)c1ccccc1SC1CC(=O)N(c2ccc(N3CCCCC3)cc2)C1=O (stereo unspecified)
- Sa growth 42C = 97
- Sa growth 42C second temp = 78
- HCMV UL50-53 inh = 0
- GIV Gai3 FP = 98
Compound: CCOc1ccccc1N=Nc1c(C)[nH]n(C(N)=S)c1=O
- Sa growth 42C = 96
- Sa growth 42C second temp = 89
- HCMV UL50-53 inh = -18
- GIV Gai3 FP = 107
Compound: C=CCNC(=O)COc1ccc(-n2cnnn2)cc1
- Sa growth 42C = 95
- Sa growth 42C second temp = 96
- HCMV UL50-53 inh = -1
- GIV Gai3 FP = x
Compound: COCCn1c(=O)[nH]c(=O)c2c3c(cnc21)C(=O)CCC3
- Sa growth 42C = x
- Sa growth 42C second temp = x
- HCMV UL50-53 inh = 4
- GIV Gai3 FP = 106

# Next section
SMILES,Sa growth 42C,Sa growth 42C second temp,HCMV UL50-53 inh,GIV Gai3 FP
COc1ccccc1NC(=O)c1cc(Sc2nncn2C)nc2ccccc12,100,87,-6,x
COc1ccc2cc(-c3nc(-c4cccs4)cs3)c(=O)oc2c1,81,101,-31,105
CSc1ncc2c(n1)-c1ccccc1N(Cc1ccccc1C)S2(=O)=O,103,86,x,104
CCN1C(=O)c2ccccc2S(=O)(=O)c2ccc(C(=O)NCC(OC)OC)cc21,87,89,-6,100
Cc1cc(F)ccc1Nc1nc2ccccc2n2nnnc12,94,95,3,109
CN1CCc2c(n(CC(O)Cn3nnc4ccccc43)c3ccccc23)C1=O (stereo unspecified),110,57,-12,97
Cc1nn(CC(=O)N2CC(C)CC(C)C2)c(=O)c2cc3sccc3n12 (stereo unspecified),x,x,-30,100
c1ccc(-n2c(Sc3ncnc4c3oc3ccccc34)nnc2C2COc3ccccc3O2)cc1 (stereo unspecified),108,86,-14,x
Cc1noc(C)c1CSc1nc2ccccc2nc1NS(=O)(=O)c1ccc(Cl)cc1,99,61,-16,x
O=C(Nc1ccc(Br)cc1F)C1CCCN(c2cnc3ccccc3n2)C1 (stereo unspecified),x,x,16,102
O=C(Cn1c(=O)[nH]c2c(-c3ccccc3)c[nH]c2c1=O)N1CCc2ccccc2C1,x,x,9,103
Cc1ccccc1C(=O)Nc1cccc(-c2cn3ccccc3n2)c1,94,65,x,102
CCOc1nc2c(c(C)nn2-c2ccc(C)cc2)c(C)c1CCC(=O)Nc1cccc(OC)c1,x,x,-24,106
CCC(=O)Nc1ccc(N2CCn3c(nc4cc(Cl)ccc43)C2)cc1,x,x,-26,102
O=C(/C=C/c1ccccc1)Nn1cnc2c(cnn2-c2ccccc2)c1=O,94,78,-15,102
CC1(C)CC2CC(C)(CN2C(=O)C23CCC(C)(C(=O)O2)C3(C)C)C1 (stereo unspecified),105,77,-20,105
Cc1cccc(NS(=O)(=O)c2cccc(C(=O)N3CCN(C)CC3)c2)c1,103,90,-29,x
O=c1oc2ccccc2cc1-c1csc(Nc2ccccc2)n1,132,97,4,107
Cc1ccc(SCC(=O)NN)cc1,90,89,-2,x
O=C(O)CNCC(O)Cn1c2ccccc2c2ccccc21 (stereo unspecified),110,66,-16,103
CCc1nc2ccccc2n1CC(=O)N(C(C)CC)C1CCS(=O)(=O)C1 (stereo unspecified),94,83,-9,x
O=C1CC(c2ccc(F)cc2)CC2=C1C=Nc1ccccc1N2 (stereo unspecified),94,91,-1,94
COc1ccc(C)cc1NC(=O)C1CCCN(S(=O)(=O)c2ccc3c(c2)oc(=O)n3C)C1 (stereo unspecified),103,86,-29,101
O=C(Nc1ccccc1I)c1cc[n+]([O-])cc1,105,82,-32,x
C[C@H](NS(=O)(=O)c1ccccc1F)C(=O)OCc1ccccc1F,78,92,-30,x
Cc1noc(/C=C/N(C)C)c1S(=O)(=O)N(C)CCc1ccc(Cl)cc1,87,78,x,114
c1cc(-c2nc(-c3ccc4c(c3)OCCCO4)cs2)on1,112,67,-14,106
Cc1ccc(/C=C(\C#N)c2nc(-c3cc4cc(Br)ccc4oc3=O)cs2)cc1,x,x,-8,102
O=C1C2C3C=CC(C3)C2C(=O)N1c1ccc(Cc2ccc(N3C(=O)C4C5C=CC(C5)C4C3=O)cc2)cc1 (stereo unspecified),x,x,-18,100
Cc1cccc(Cc2c(C)nc3nc(SCC(=O)NCc4ccccc4)nn3c2C)c1,123,74,-9,99
COc1ccc2[nH]c3c(c2c1)CCn1c-3nc2sc3c(c2c1=N)CCCC3,x,x,-26,108
O=S(=O)(NC1CCN(Cc2c(F)cccc2Cl)CC1)c1ccc(C(F)(F)F)cc1,121,103,14,112
COc1cccc(C2C3=C(CCCC3=O)Nc3onc(C)c32)c1OC (stereo unspecified),x,x,-10,114

# High-throughput results deposited in PubChem by ICCB-Longwood Screening Facility, Harvard Medical School.
